Rce1 inh: yeast Rce1p protease inhibitors, primary screen, biochemical, fluorescence, cell-free homogeneous. yeast membranes, quenched prenylated peptide cleavage fluorescence. calls only. hit rate 0.27% among 290,000. AID 2563, 2010;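 active = fall in fluorescence gain of 50% or more versus controls, with final raw signal at or below 3038400; inconclusive = same 50% fall but final raw signal above 3038400; inactive = fall in fluorescence gain under 50%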;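 note: plate controls were neutral control wells for no effect and wells lacking membranes for full effect; tested at 10 µM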
Target sequence (Q03530 whole entry, looked up): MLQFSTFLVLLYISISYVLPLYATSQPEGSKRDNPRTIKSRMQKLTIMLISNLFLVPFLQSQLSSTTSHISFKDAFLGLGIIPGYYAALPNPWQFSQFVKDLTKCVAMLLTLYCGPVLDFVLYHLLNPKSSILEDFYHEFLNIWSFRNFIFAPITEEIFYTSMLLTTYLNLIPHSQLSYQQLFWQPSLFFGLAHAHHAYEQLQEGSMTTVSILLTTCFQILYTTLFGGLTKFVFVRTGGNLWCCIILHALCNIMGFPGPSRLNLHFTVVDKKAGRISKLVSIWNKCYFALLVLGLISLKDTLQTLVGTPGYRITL
PABP FP inh: PABP poly(A) RNA binding inhibitors, primary screen, biochemical, fluorescence polarization, uHTS; Polyadenylate-binding protein 1 (Homo sapiens), P11940; inhibition, % at 35 µM; hit rate 1% among 290,000; AID 2014, 2009;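 active = 50% or more with normal probe brightness, or confirmed in later tests; inconclusive = above 50% with abnormal brightness, or retests that disagree; inactive = below 50% or failed in later tests; about a fifth of its hits are not listed in these tables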;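 note: calls also rest on retests at 20 µM and on dose response follow-up; controls were probe without protein and protein plus probe with vehicle; some compounds called inactive have numbers as strong as hits; many hits fall short of the cut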
Target sequence (P11940 whole entry, looked up): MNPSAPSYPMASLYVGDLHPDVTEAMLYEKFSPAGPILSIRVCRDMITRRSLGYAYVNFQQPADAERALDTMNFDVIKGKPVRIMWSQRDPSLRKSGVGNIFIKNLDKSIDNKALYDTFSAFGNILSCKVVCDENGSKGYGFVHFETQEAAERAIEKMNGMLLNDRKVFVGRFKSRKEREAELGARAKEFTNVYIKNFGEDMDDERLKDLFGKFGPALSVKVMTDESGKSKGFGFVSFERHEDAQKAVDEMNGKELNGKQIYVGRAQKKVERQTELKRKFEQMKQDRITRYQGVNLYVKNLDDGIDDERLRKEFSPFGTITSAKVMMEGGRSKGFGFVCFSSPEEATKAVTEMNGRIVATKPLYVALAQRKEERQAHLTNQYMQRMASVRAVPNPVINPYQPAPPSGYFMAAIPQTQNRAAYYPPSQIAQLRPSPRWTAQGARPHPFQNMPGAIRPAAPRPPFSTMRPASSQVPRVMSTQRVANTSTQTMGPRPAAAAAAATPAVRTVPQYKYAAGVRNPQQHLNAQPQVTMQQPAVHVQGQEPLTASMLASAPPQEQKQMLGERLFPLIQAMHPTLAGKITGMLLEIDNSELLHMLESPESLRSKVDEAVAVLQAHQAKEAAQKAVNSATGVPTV
MT1-MMP act inh: blockers of MT1-MMP proenzyme processing, primary screen, HT1080 RFP-PRO-GFP cells, GFP/RFP fluorescence; Matrix metalloproteinase-14 (Homo sapiens), P50281; GFP/RFP ratio fluorescence, overnight; percent of plate control window, DMSO zero; GFP/RFP ratio change, % at 20 µM; hit rate 0.061% among 360,000; AID 651647, 2012;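 active = GFP/RFP ratio change of at least 30% with cell ATP level not reduced by more than half and red fluorescence within 50% of control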; note: strong numbers were not always called active
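Assay system – RFP-PRO-GFP reporter HT1080 cells · Compound dosing – single dose of 20 µM compound, 1% DMSO final · Incubation – overnight compound exposure at 37 °C · Measure – GFP/RFP fluorescence ratio · Benchmarks – DMSO wells and RFP-L50D-GFP cells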
eIF4H inh: human eIF4H binding inhibitors, primary screen, translation initiation inhibitor project, biochemical, uHTS, fluorescence polarization. inhibition, % at 35 µM. hit rate 0.94% among 290,000. Eukaryotic translation initiation factor 4H (Homo sapiens), Q15056. eIF4H fluorescence polarization binding assay;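 active = 50% or more with normal probe brightness, or confirmed in later tests; inconclusive = above 50% with abnormal brightness, or retests that disagree; inactive = below 50% or failed in later tests; about a fifth of its hits are not listed in these tables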;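 note: calls also rest on retests at 20 µM and on dose response follow-up; 0% = protein and probe with vehicle and 100% = probe without protein; strong numbers were not always called active; many hits fall short of the cut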
Yeast UUG start: modulators of yeast start codon fidelity, primary screen, whole organism, S. cerevisiae, single point, plate reader | S. cerevisiae UUG-firefly luciferase reporter, luminescence/redox ratio | activity score, % at 18.7 µM | hit rate 0.13% among 350,000 | AID 602363, 2012;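 active = replicate mean at a twofold rise or more, about +100% in these data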;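 note: firefly luciferase made from a UUG start codon reports start codon fidelity; reporter light over untreated wells divided by growth signal over untreated wells; some hits fall short of that in this replicate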
CSC inhib: cancer stem cell viability inhibitors, primary screen, luminescence. cancer stem cell-like cells viability. inhibition, % at 7.5 µM. hit rate 1.1% among 300,000. AID 2717, 2010;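 active = mean at 75% or more and at least half the replicates too; inconclusive = mean and replicates disagree; tested in HMLE shEcad cells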;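 note: 0% = median of negative and 100% = median of positive control wells; the first replicate is given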
Env fusion inh: inhibitors of HIV-1 Env-driven cell-cell fusion, primary screen, HeLa-JRFL effector, CEM21 target cells, luciferase; inhibition, % at 12.3 µM; AID 651610, 2012; hit rate 1.1% among 360,000;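 active = mean replicate inhibition score of at least 50 and every replicate individually at or above 50; inconclusive = only one of the two criteria met; inactive = mean below 50 and not all replicates reaching 50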;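 note: 0% = plate neutral controls and 100% = maraviroc near 300 nM; one replicate is shown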
MT1-MMP act inh RFP: also measured in MT1-MMP act inh; calls as there; RFP signal change, %; measured here: RFP expression control read;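 0 = vehicle wells; hits needed this value within 50% of zero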
The depositor's hits bear a star; i = inactive; ? = inconclusive; / = no result given. Only part of the results is shown; rates above refer to the full screens.

cpd	Compound	MT1-MMP act inh RFP	eIF4H inh	Yeast UUG start	Env fusion inh
1	O=c1c2cc(Br)ccc2nc(-c2ccccc2)n1O	1	2	5	18
2	Cc1cc(C)c(S(C)(=O)=O)c(Oc2ccccc2C)n1	1	-2	-6	/
3	CCNC(=S)N1CCN(S(=O)(=O)c2ccc(C)c(C)c2)CC1	5	-7	/	3
4	COc1cc(C)c(NC(=O)C2CCN(S(=O)(=O)c3cccs3)CC2)cc1OC	5	/	2	2
5	COc1cccc(C(=O)OCC(=O)N2CCc3ccccc3C2)c1	3	/	7	1
6	CC(O)(c1cccnc1)c1nc(/C=C/c2ccccc2)cs1 (stereo not drawn)	-25	/	-19	?
7	O=C(CSc1nc(Nc2ccccc2)nc(N2CCOCC2)n1)Nc1ccc([N+](=O)[O-])cc1	-20	3	-24	/
8	O=C(O)CN1C(=O)Nc2ccc(Br)cc2C1c1ccccc1 (stereo not drawn)	-1	-6	1	/
9	O=C(COC(=O)c1cc[n+]([O-])cc1)Nc1c(Cl)cccc1C(F)(F)F	0	/	-3	0
10	COc1cccc(NC(=O)COC(=O)c2c(-c3ccccc3)noc2C)c1	1	-1	-8	26
11	CSC1=N/C(=C\C=C\c2cccs2)C(=O)S1	15	10	-5	/
12	COc1ccc(Cl)cc1S(=O)(=O)N1CCC(C(=O)NCc2ccco2)CC1	2	-8	-11	-35
13	CCOC(=O)c1cc2c(c(-c3cccc(C#Cc4ccc(OC)c(OC)c4)c3)n1)[C@@H](CCO)N(S(=O)C(C)(C)C)C2 (stereo partly drawn)	4	/	1	-6
14	Nc1nonc1-c1noc(-c2ccccc2Br)n1	-1	-13	-14	-482
15	CCC(C(=O)OCC(=O)c1c(N)n(CC(C)C)c(=O)n(C)c1=O)c1ccccc1 (stereo not drawn)	-25	/	-9	60*

cpd	MT1-MMP act inh	CSC inhib	Rce1 inh	PABP FP inh
1	0	12	i	4
2	1	-7	i	-8
3	4	-7	i	-8
4	0	/	/	/
5	-2	2	/	/
6	-2	/	/	/
7	-10	33	i	1
8	-1	-1	i	-7
9	-1	-12	i	/
10	2	-3	i	-2
11	-5	19	i	8
12	-1	-8	i	-1
13	6	/	/	/
14	2	-3	i	-5
15	-11	15	i	/

Carrying on:
cpd	Compound	MT1-MMP act inh RFP	eIF4H inh	Yeast UUG start	Env fusion inh
16	Cc1ccc(NC(=O)NCc2ccccn2)c(C)c1	-3	11	-14	/
17	COc1ccc2cc(C(=O)C3CCCN(C(=O)c4sc(C)nc4C)C3)ccc2c1 (stereo not drawn)	0	-3	-4	0
18	Cn1cnc(S(=O)(=O)NCc2ccc(Br)cc2)c1	1	7	-13	17
19	CC(=O)Oc1ccc2oc(C)c(C(=O)N3CCOCC3)c2c1	4	-7	-5	1
20	CC12CCC(C(=O)N(CC3CO3)C1=O)C2(C)C (stereo not drawn)	3	43	/	-4
21	O=C(Nc1ccccc1OC(F)(F)F)c1ccc([N+](=O)[O-])cc1	2	0	/	0
22	COc1ccccc1NC(=O)CN(C)S(=O)(=O)c1cccc2cccnc12	-1	4	-14	-3
23	CCCN(Cc1cc2ccc(C)cc2[nH]c1=O)C(=O)c1ccccn1	1	-2	-7	/
24	Cc1cccc2sc(NC(=O)C3CCN(S(=O)(=O)c4cc([N+](=O)[O-])ccc4Cl)CC3)nc12	-33	17	/	/
25	Cc1ccc(C(=O)NCc2ccncc2)cc1S(=O)(=O)N1CCOCC1	1	-5	-4	4
26	COc1cc(C(=O)N/N=C(\C)c2ccccn2)cc(OC)c1OC	1	49	-13	-17
27	COc1ccc2c(c1)O/C(=C\c1ccco1)C2=O	6	50	-13	-41
28	Cc1cc(C)cc(C(=O)NCCCc2ccccc2)c1	2	0	/	20
29	O=C(COc1ccc(/C=N/NC(=O)c2ccccc2Br)cc1)Nc1ccccc1	-1	0	-5	-26
30	N/C(Cc1ccc(Cl)cc1)=N\OC(=O)c1ccccc1	0	2	37	/

cpd	MT1-MMP act inh	CSC inhib	Rce1 inh	PABP FP inh
16	-6	-5	i	-11
17	-1	-4	i	-6
18	-1	8	i	-5
19	-1	-1	i	-4
20	2	-15	i	37
21	3	4	i	-2
22	-1	11	i	-4
23	-1	-9	i	8
24	-7	7	i	7
25	1	-13	i	-7
26	3	64	i	2
27	-2	-2	i	42
28	1	12	i	-2
29	1	-8	i	-10
30	0	1	i	7

One compound at a time, from the list above. Order of values: MT1-MMP act inh RFP	eIF4H inh	Yeast UUG start	Env fusion inh	MT1-MMP act inh	CSC inhib	Rce1 inh	PABP FP inh
COc1cc(C(=O)N/N=C(\C)c2ccccn2)cc(OC)c1OC reads 1	49	-13	-17	3	64	i	2
Cc1ccc(NC(=O)NCc2ccccn2)c(C)c1 reads -3	11	-14	/	-6	-5	i	-11
Cc1ccc(C(=O)NCc2ccncc2)cc1S(=O)(=O)N1CCOCC1 reads 1	-5	-4	4	1	-13	i	-7

New compounds follow
cpd	Compound	MT1-MMP act inh RFP	eIF4H inh	Yeast UUG start	Env fusion inh
31	COC(=O)c1cnn(-c2ccc(F)cc2F)c1/C=N/NC(=S)NC(C)(C)C	-8	-5	-37	-15
32	CC(C)CCN1C(=O)c2ccc(C(=O)Nc3ccccn3)cc2C1=O	-8	-7	-1	-10
33	CN(C(=O)COC(=O)c1cncc(Br)c1)C1CCS(=O)(=O)C1 (stereo not drawn)	1	-8	/	-2
34	Cc1ccc(NC(=O)CSc2nc3c(c(=O)[nH]2)CCC3)cc1C	-5	-17	-16	/
35	CCCn1c(SCC(=O)Nc2cccc(C)n2)nnc1-c1ccco1	6	1	-9	/
36	COc1ccc(S(=O)(=O)n2cnc3ccccc32)c(C)c1	-6	5	-19	9
37	COc1ccc2nc(NC3=NCCC3)sc2c1	2	-4	-23	-72
38	CC(C)(C)NC(=O)COC(=O)c1c2c(nc3ccccc13)CCC2	-1	12	-10	13
39	COc1ccc(C(c2nnnn2C2CCCC2)N2CCN(C3CCCC3)CC2)cc1OC (stereo not drawn)	4	3	-6	/
40	Cc1c(C(=O)Nc2ccc(S(=O)(=O)Nc3ncccn3)cc2)oc2ccc(F)cc12	6	12	6	-268
41	COc1cccc(OC)c1C(=O)Nn1c(-c2cccs2)nc2ccccc2c1=O	2	0	/	-2
42	Cc1c(Cl)cccc1NC(CC(=O)c1ccccc1)C(=O)OCC(=O)c1cccs1 (stereo not drawn)	-1	-1	-4	-50
43	CC12CN3CC(C)(CN(C1)C3c1ccc3c(c1)OCO3)C2O (stereo not drawn)	-1	-3	9	-6
44	CCn1c2ccccc2c2cc(NC(=O)C(C)Oc3ccc(OC)cc3)ccc21 (stereo not drawn)	-3	-4	8	/
45	Cc1ccc2oc(C(=O)Nc3nnc(CC(C)C)s3)c(C)c2c1	0	0	-13	-28

cpd	MT1-MMP act inh	CSC inhib	Rce1 inh	PABP FP inh
31	0	5	/	3
32	0	11	i	7
33	-3	6	i	0
34	-5	/	i	-2
35	8	-14	i	1
36	-1	-9	i	11
37	6	-2	i	-15
38	-5	4	i	8
39	0	-1	i	7
40	8	2	i	1
41	-6	-15	i	3
42	-2	2	i	5
43	2	-13	i	4
44	2	9	i	-13
45	2	-1	i	-11

Carrying on.
cpd	Compound	MT1-MMP act inh RFP	eIF4H inh	Yeast UUG start	Env fusion inh
46	CCN(CC(O)Cn1c2ccccc2c2ccccc21)S(=O)(=O)c1ccc(C)cc1 (stereo not drawn)	-14	10	-11	56*
47	O=C(CN1C(=O)c2cccc([N+](=O)[O-])c2C1=O)NNC(=O)c1ccc(F)cc1	4	/	10	/
48	CCOC(=O)C1=C(N)N2C(=O)C(C)SC2=C(C(=O)OCC)C1c1cc(OC)c(OC)c(OC)c1 (stereo not drawn)	0	0	/	3
49	CN(C)S(=O)(=O)n1cc(/C=C(\NC(=O)c2ccccc2Cl)C(=O)N2CCCC2)c2ccccc21	-3	-13	1	20
50	COc1ccccc1OCCNC(=O)/C=C/c1ccc([N+](=O)[O-])cc1	1	-3	/	-52
51	O=C(NCC(c1ccc(F)cc1)N1CCOCC1)c1cccnc1Sc1ccccc1Cl (stereo not drawn)	1	/	8	-97
52	Cc1ccc(S(=O)(=O)CC(=O)Nc2cccc(C)n2)cc1	0	-2	-12	-8
53	COC(=O)C(=O)/C=C(\O)c1ccc(C)cc1	4	3	/	4
54	Cc1c(C(=O)NCCNc2ncc(C(F)(F)F)cc2Cl)cccc1[N+](=O)[O-]	-5	-7	5	15
55	Cc1ccc(CN2CC(C(=O)Nc3cccc(S(=O)(=O)N4CCCCC4)c3)CC2=O)cc1 (stereo not drawn)	-3	22	3	29
56	O=C(CNC(=O)c1ccccc1F)OCc1csc(-c2ccccc2)n1	7	-20	3	1
57	Cc1cc(=O)n2[nH]c(N)c(N=Nc3ccccc3)c2n1	-6	12	1	-66
58	Cc1cc(C)c2sc(C)[n+](CCCS(=O)(=O)[O-])c2c1	4	-15	7	0
59	COc1nc(NCCN2CCOCC2)nc(Nc2ccccc2)n1	2	0	7	/
60	Cc1ccc(S(C)(=O)=O)cc1C(=O)NC(C)C1CC2CCC1C2 (stereo not drawn)	6	-3	-7	11
61	COc1ccc(-c2csc(NC(CO)c3nc4ccccc4n3Cc3ccc(C)cc3)n2)cc1 (stereo not drawn)	0	/	-26	-23

cpd	MT1-MMP act inh	CSC inhib	Rce1 inh	PABP FP inh
46	-13	32	i	3
47	6	-5	/	/
48	0	-12	i	6
49	-3	-20	i	-14
50	3	-10	i	-3
51	-5	10	i	/
52	-1	-8	i	6
53	-2	-3	i	-2
54	-1	13	i	1
55	-5	-7	i	7
56	8	-1	i	0
57	13	5	i	-3
58	3	6	i	41
59	3	-1	i	-7
60	2	-28	i	2
61	1	17	i	/

Screening results: PubChem BioAssay, several laboratories
